Screens as filed in PubChem BioAssay.
GIV-Gai inh = GIV-Galpha-i interaction inhibition; P08753; Galpha-i3/FITC-GIV peptide fluorescence polarization, 90 min; active compounds read low; scaled: aluminum fluoride 0%, vehicle 100%; percent of control (FP), % (no concentration beside the values); 210,000 compounds, 0.42% hits; AID 1224905;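 active = replicate mean at 85% of control or lower, very high polarization wells dropped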;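 note: wells of about 15 µL received 100 nL stock; the first replicate is given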
Target sequence (P08753 whole entry, looked up): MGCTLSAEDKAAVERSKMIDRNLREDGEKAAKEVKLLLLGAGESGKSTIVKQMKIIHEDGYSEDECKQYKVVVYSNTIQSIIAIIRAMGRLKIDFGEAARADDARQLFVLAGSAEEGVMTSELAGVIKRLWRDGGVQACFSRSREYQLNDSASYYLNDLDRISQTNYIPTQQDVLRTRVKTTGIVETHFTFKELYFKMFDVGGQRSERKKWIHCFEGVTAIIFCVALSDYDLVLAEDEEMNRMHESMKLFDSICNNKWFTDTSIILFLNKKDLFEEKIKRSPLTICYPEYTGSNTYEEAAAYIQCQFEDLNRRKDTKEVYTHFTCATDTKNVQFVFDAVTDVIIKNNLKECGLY
Sa growth inh = blocks Staphylococcus aureus growth. S. aureus RN4220 growth, OD600, 20 h, 42 °C; active compounds read low. relative growth, % (test concentration not listed). 170,000 compounds, 0.53% hits. AID 720641;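 active = growth at 42 °C up to 50% and 20 or more points under that at 30 °C, or under 10% at both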;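 note: 300 nL library stock went into each well; scaled to the means of positive and negative controls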
HCMV NEC inh = cytomegalovirus nuclear egress complex inhibition; 190,000 compounds, 0.15% hits; HTRF UL50-UL53 interaction, normalized percent inhibition; inhibition, % (concentration not given with the values);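 active = both replicates at 50% or more, plus weaker picks with an unusually low signal ratio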;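 note: stock transfer was 100 nL into about 20 µL; 0% = negative control wells and 100% = wells with untagged competitor protein; inactives centre near -12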
Sa growth inh second temp = further read-out of Sa growth inh, marked with its call; relative growth, %; measured here: growth at 30 °C;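 optical density after 20 h as mean of two plates; 100% = untreated growth and lower means inhibition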
Active calls of the source: *; nt = no result given; & = joins results of further samples.

SMILES	GIV-Gai inh	Sa growth inh	Sa growth inh second temp	HCMV NEC inh
CSc1ccc(NC(=O)C(C)N2CCN(C)CC2)cc1 (configuration not stated)	103	104	103	5
O=C(CSC1=Nc2ccccc2N=C(c2ccccc2)C1)Nc1ccc(Br)cc1	107	nt	nt	-10
CCC12CN3CC(CC)(CN(C1)C3c1ccc(O)cc1)C2O (configuration not stated)	100	nt	nt	10
CC1Oc2ccccc2OC1=O (configuration not stated)	98	98	94	-2
O=C(Nc1ccc(Oc2ccccc2)cc1)c1ccccn1	nt	87	78	-10
CCOC(=O)c1cc(C)n(-c2ccc(I)cc2)c1C	108	97	71	-16
CCN(CC)S(=O)(=O)c1cccc(C(=O)OCc2nnc(-c3ccccc3)o2)c1	nt	96	93	-14
CCN(CC)c1c(S(=O)(=O)c2ccccc2)cnc2cc3c(cc12)OCCO3	102	104	85	-11
COC(=O)CC(C#N)(c1ccccc1)c1cccc(F)c1C#N (configuration not stated)	102	nt	nt	-17
Cc1ccc(Cc2c(C)nc3c(C(=O)O)cnn3c2C)cc1	103	103	88	-8
O=CN1CCN(S(=O)(=O)c2ccc(S(=O)(=O)NC3CC3)cc2)CC1	104	100	88	-26
Cc1ccccc1CCN(Cc1cc2c(C)ccc(C)c2[nH]c1=O)C(=O)c1cnccn1	100	90	74	-9
CCOC(=O)c1ccc(NC(=O)C(CC)Sc2nc3ccncc3[nH]2)cc1 (configuration not stated)	109	86	72	14
Cc1ccc2oc(-c3ccc4c(c3)C(=O)N(C)C4=O)nc2c1	105	94	100	1
Cc1ncc(CO)c2c1Oc1nc(-c3ccc(F)cc3)nc(SCC(=O)N3CCCCC3)c1C2	102	102	87	nt
CCCN1CCN(C(=S)Nc2ccc(S(N)(=O)=O)cc2)CC1	100	105	93	-3
COc1cccc(CNc2ccc(-c3nc4ncccc4o3)cc2)c1OC	99	96	92	nt
Cc1ccc2occ(CC(=O)Nc3nnc(C)s3)c2c1	100	89	86	-3
CC1=CC(C)(C)NC(=O)N1c1cccc(F)c1	nt	100	73	-32
CCCCOc1cc(C(=O)NCCN(CC)CC)c2ccccc2n1	nt	98	97	-5&1&-6
Cc1oc2ncn(CC(C)C)c(=O)c2c1C(=O)NCCc1ccc(Cl)cc1	108	95	87	nt
CCn1c(=O)c2cc(C(=O)NCCCN3CCN(C)CC3)sc2c2ccccc21	109	102	104	-33
CCCOc1ccc(C(=O)Nc2cc3nn(-c4ccc(CC)cc4)nc3cc2C)cc1	108	100	90	-15
O=C1c2ccccc2C(=O)C1(c1ccccc1)N1CCN(c2cccc(Cl)c2)CC1	108	104	95	3

Exported as labelled records: 4 of the compounds above
COc1cccc(CNc2ccc(-c3nc4ncccc4o3)cc2)c1OC
  GIV-Gai inh = 99	Sa growth inh = 96	Sa growth inh second temp = 92	HCMV NEC inh = nt

Cc1ccc2occ(CC(=O)Nc3nnc(C)s3)c2c1
  GIV-Gai inh = 100	Sa growth inh = 89	Sa growth inh second temp = 86	HCMV NEC inh = -3

CC1=CC(C)(C)NC(=O)N1c1cccc(F)c1
  GIV-Gai inh = nt	Sa growth inh = 100	Sa growth inh second temp = 73	HCMV NEC inh = -32

CCCCOc1cc(C(=O)NCCN(CC)CC)c2ccccc2n1
  GIV-Gai inh = nt	Sa growth inh = 98	Sa growth inh second temp = 97	HCMV NEC inh = -5&1&-6

The list continues:
SMILES	GIV-Gai inh	Sa growth inh	Sa growth inh second temp	HCMV NEC inh
CC(C)c1cc(C(=O)Nc2nc3c(s2)CCCC3)nn1C1CCS(=O)(=O)C1 (configuration not stated)	97	nt	nt	6
CNS(=O)(=O)c1cc(C)ccc1OC	104	100	100	11
COc1ccc(CCN2CC(C(=O)N(C)C)CC2=O)cc1OC (configuration not stated)	nt	102	93	-18
CCOC(=O)c1oc2ccccc2c1COC(=O)/C=C/c1cccs1	nt	102	88	-26
COC(=O)c1ccccc1NC(=O)Nc1ccc(C(=O)N2CCCC2)cc1	103	96	91	-8
CCOC(=O)c1sc(NCc2ccco2)c(-c2nc3ccccc3s2)c1N	nt	88	94	-5
CC(C)CNCCCN1CCOCC1	98	134	108	-6
CCOC(=O)c1[nH]ncc1-c1ccc(Cl)cc1Cl	101	98	102	3
COc1ccc2sc(N(Cc3cccnc3)C(=O)C3CCCCC3)nc2c1	108	61	19	nt
O=C(O)CCSc1ccccc1	101	nt	nt	-5
NNC(=O)c1ccc(Oc2ccc(Cl)cc2)nc1	104	92	87	-31
CC(=O)Nc1c(C)[nH]n(-c2ccccc2)c1=O	98	98	90	nt

A draw from above in order of number of heavy atoms, low to high.
SMILES	GIV-Gai inh	Sa growth inh	Sa growth inh second temp	HCMV NEC inh
NNC(=O)c1ccc(Oc2ccc(Cl)cc2)nc1	104	92	87	-31
COc1ccc(CCN2CC(C(=O)N(C)C)CC2=O)cc1OC (configuration not stated)	nt	102	93	-18
CC(C)c1cc(C(=O)Nc2nc3c(s2)CCCC3)nn1C1CCS(=O)(=O)C1 (configuration not stated)	97	nt	nt	6

(continued)
SMILES	GIV-Gai inh	Sa growth inh	Sa growth inh second temp	HCMV NEC inh
CC1(C)C(=O)N(CC(=O)Nc2cccc(Cl)c2)c2ccccc21	101	nt	nt	-4
O=C(Nc1cccc(O)c1)C1CCCN1C(=O)OCc1ccccc1 (configuration not stated)	nt	111	93	-1
Cc1ccc(-n2nnc(C(N)=O)c2C)cc1	102	nt	nt	1
CCOC(=O)c1c(-c2ccccc2)oc2ccc(NS(=O)(=O)c3ccc(C)cc3)cc12	114	96	90	-10
Cc1ccc(NC(=O)NCc2c(C)nn(-c3ccccc3)c2-n2cccc2)cc1C	104	nt	nt	-12
CCC(=O)N1CCN=C1SCc1ccccc1	102	86	84	-18
COc1ccccc1CN1C(=O)NC2(CCOc3ccccc32)C1=O (configuration not stated)	nt	95	95	-12
Cc1cccc2nc(Cn3c(=O)n(-c4ccc(Cl)cc4)c(=O)c4c5c(sc43)CCC5)cc(=O)n12	101	89	102	13
O=C(CSC1CC(=O)N(c2ccccc2)C1=O)Nc1ccc(Cl)cc1 (configuration not stated)	97	89	69	nt
COC(=O)c1cc(OC)c(OC)cc1NC(=O)c1cnc(N(C)C)nc1C(F)(F)F	102	88	91	-32
Cn1c(=O)c2c(-c3ccc(Br)cc3)n(CCc3ccccc3)cc2n(C)c1=O	107	100	90	0
CC(=O)Nc1nonc1-c1nnc(SCc2ccc(F)cc2)n1C	99	102	90	-4

Compounds from the list above that contain a furan ring, fused or not (five):
SMILES	GIV-Gai inh	Sa growth inh	Sa growth inh second temp	HCMV NEC inh
Cc1ccc2occ(CC(=O)Nc3nnc(C)s3)c2c1	100	89	86	-3
Cc1oc2ncn(CC(C)C)c(=O)c2c1C(=O)NCCc1ccc(Cl)cc1	108	95	87	nt
CCOC(=O)c1oc2ccccc2c1COC(=O)/C=C/c1cccs1	nt	102	88	-26
CCOC(=O)c1sc(NCc2ccco2)c(-c2nc3ccccc3s2)c1N	nt	88	94	-5
CCOC(=O)c1c(-c2ccccc2)oc2ccc(NS(=O)(=O)c3ccc(C)cc3)cc12	114	96	90	-10

Next part.
SMILES	GIV-Gai inh	Sa growth inh	Sa growth inh second temp	HCMV NEC inh
COCCNC(=O)c1cc2c(=O)[nH]c3ccccc3c2s1	104	92	78	7
O=C(NCC1CCCO1)c1cccc(N2C(=O)C3C4C=CC(C4)C3C2=O)c1 (configuration not stated)	105	100	93	9
CN1C(=O)C2(NC(=O)c3ccccc3O2)c2ccccc21 (configuration not stated)	nt	92	96	-18
CC(C)(C)C1=C(C#N)C(c2cccs2)C(C#N)=C(NC(=O)NC(=O)c2c(F)cccc2Cl)O1 (configuration not stated)	97	98	96	-21
Cc1oc2c(c1C(=O)Nc1ccc(Cl)cc1F)C1=NCCN1C=N2	99	111	91	nt
CN1C(=O)N(C)c2cccc3cccc1c23	105	99	94	-1
CCn1c(=O)cc(SCC(=O)N2CCN(c3ccccn3)CC2)c2ccccc21	102	nt	nt	-29
N#Cc1c(N2CCCC2)oc2nc3ccccc3nc12	nt	94	89	17
CN(C(=O)CSc1nc(-c2ccccc2)cn1N)C1CCS(=O)(=O)C1 (configuration not stated)	nt	110	96	2
CN1C(=O)CC[C@H]1c1cccnc1	98	100&94	85&92	-12&-4&-29
O=C(NCC1CCCO1)C1CCN(c2nc3cccnc3s2)CC1 (configuration not stated)	104	nt	nt	-20
O=C(Cn1cc(C(=O)C2CC2)c2ccccc21)NC1CCCC1	105	93	91	4
O=C(NC1CC(=O)N(c2cccc(F)c2)C1)c1ccc(S(=O)(=O)N2CCCC2)cc1 (configuration not stated)	97	96	90	nt
Cn1c(=O)cc(SCC(=O)NCc2ccc(F)cc2)c2ccc(Cl)cc21	107	104	93	-20
COc1ccc(NC(=O)c2ccco2)cc1NC(=O)c1cccc(C)c1OC	109	87	88	-19
COc1ccc(C2CC(SCC(=O)c3ccccc3)=Nc3ncnn32)cc1 (configuration not stated)	103	103	92	-14
Cc1ccc(-n2c(=O)c3cccnc3n2CC(=O)Nc2ccc(C)cc2C)cc1	104	nt	nt	-19
O=C1CCc2cc(S(=O)(=O)NC(C(=O)Nc3ccc(F)cc3)c3ccccc3)ccc2N1 (configuration not stated)	98	111	87	-39
CSc1nnc(SCC(=O)N2CCC(C(F)(F)F)CC2)s1	102	74	105	-2
CCn1nc(C)c(CCN(C)C(=O)Nc2ccc(OC)cc2OC)c1C	104	nt	nt	-11
Cc1ccc(NC(=O)CCC(=O)N2Cc3ccccc3Oc3ncccc32)cc1Cl	96	150	83	nt
COc1ccc(N2CCN(C(CNC(=O)C(=O)NCCCN(C)C)c3cccnc3)CC2)cc1 (configuration not stated)	107	111	99	-12
Cc1ccccc1NC(=O)C1CC(=O)OC1(C)C (configuration not stated)	104	102	88	-8
Cn1cc(C(=O)N2CCC(Cc3ccccc3)CC2)c(=O)c2cc(S(=O)(=O)N3CCCC3)ccc21	100	nt	nt	-26
CCn1c(C(=O)N2CCC(C(=O)NC3CCCCCC3)CC2)cc2sccc21	109	95	85	nt
CC(=NCc1cccnc1)c1c(C)[nH]n(-c2nc3ccccc3s2)c1=O	97	94	93	-24
O=C(CCS(=O)(=O)c1cccc2nonc12)N1CCN(C(c2ccccc2)c2ccc(Cl)cc2)CC1 (configuration not stated)	102	82	87	-14
CCN(C(=O)CSc1nc2ccncc2[nH]1)c1cccc(C)c1	101	115	83	1
CCN(c1cccc(C)c1)S(=O)(=O)c1c(C)[nH]c(=O)[nH]c1=O	108	109	87	nt
O=C(COc1ccccc1)Nc1ccccc1N1CCCC1	103	97	87	15
Clc1ccc(Cl)c(-c2ccc(CNCCN3CCNCC3)o2)c1	107	nt	nt	1
CC(=O)Nc1ccc(NC(=O)COc2ccc(C)cc2)cc1	101	93	80	-5

This is a random part of the collection, and some 0.83% of all compounds hit somewhere here.
